Arbovirus anti: antivirals against arbovirus infection; arbovirus infection cell-based antiviral screen; inhibition, % at 10 µM; hit rate 0.37% among 200,000; AID 1251;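 active = inhibition from about 30%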;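 also: bluetongue infection of BSR cells; cell survival read as ATP light after 72 h; 0% = infected wells without compound and 100% = uninfected wells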
RecA splice inh: Mtb RecA intein splicing inhibition; AID 2221; inhibition, %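 (about 9 µM by stock and volumes)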; hit rate 0.75% among 290,000; cell-free RecA intein splicing, fluorescence; in the data active = inhibition above about 30%; inconclusive = no clear call, values can overlap the other calls;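 also: 0% = vehicle wells and 100% = reference inhibitor control wells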
Target sequence (P9WHJ3 whole entry, looked up, canonical isoform): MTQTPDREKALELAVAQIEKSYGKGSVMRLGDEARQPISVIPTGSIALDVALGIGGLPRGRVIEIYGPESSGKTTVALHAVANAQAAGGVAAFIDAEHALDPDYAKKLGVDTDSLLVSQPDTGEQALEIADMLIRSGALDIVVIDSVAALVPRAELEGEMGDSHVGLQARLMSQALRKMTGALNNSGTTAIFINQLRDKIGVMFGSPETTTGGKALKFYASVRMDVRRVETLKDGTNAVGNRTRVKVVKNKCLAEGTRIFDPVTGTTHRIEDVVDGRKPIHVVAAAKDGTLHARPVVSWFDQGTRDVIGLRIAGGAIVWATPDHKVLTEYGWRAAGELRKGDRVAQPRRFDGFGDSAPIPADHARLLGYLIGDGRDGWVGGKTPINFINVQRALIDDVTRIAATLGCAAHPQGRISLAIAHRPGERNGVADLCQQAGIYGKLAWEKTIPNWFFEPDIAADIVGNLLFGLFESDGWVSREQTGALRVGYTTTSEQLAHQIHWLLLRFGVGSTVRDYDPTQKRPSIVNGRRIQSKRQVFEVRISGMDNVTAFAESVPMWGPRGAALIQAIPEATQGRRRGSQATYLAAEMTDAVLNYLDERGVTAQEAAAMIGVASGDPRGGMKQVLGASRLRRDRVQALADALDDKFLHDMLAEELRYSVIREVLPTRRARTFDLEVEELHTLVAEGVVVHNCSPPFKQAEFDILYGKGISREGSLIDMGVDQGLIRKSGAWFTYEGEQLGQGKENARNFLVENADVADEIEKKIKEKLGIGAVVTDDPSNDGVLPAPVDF
Mtb H37Rv: M. tuberculosis H37Rv growth inhibitors, H37Rv strain (AID 1626); M. tuberculosis H37Rv growth inhibition; higher % means a stronger effect; one-dose inhibition, % at 10 µM; IC50 in µM for titrated hits; hit rate 0.95% among 220,000;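 active = confirmed in a dose series; inconclusive = inhibition above 80% but not taken into the dose series; inactive = below 80% or under 30% at every dose of the series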;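 also: bacteria incubated seven days before Alamar blue readout; 0% = bacteria only wells and 100% = bacteria with antibiotic wells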
YopH inh: YopH (Yersinia) phosphatase inhibition; fluorescence Ex485/Em525; inhibition, %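 (about 10 µM by stock and volumes)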; hit rate 0.16% among 140,000; AID 898;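 active = inhibition of 50% or more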;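 also: controls were vehicle for no effect and minimum signal wells for full effect; inactives centre near -20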
Mtb bLac sens: beta-lactam sensitization of Mtb H37Rv; M. tuberculosis H37Rv growth with meropenem, percent inhibition; hits of this screen are not shown here; inhibition, % at 25 µM; hit rate 0.27% among 330,000; AID 434955;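 active = about 74% or more and at least 40 points above the plate without the antibiotic, then above 30% in a dose series; inconclusive = first-round hits that could not be retested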;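 also: growth measured after seven days incubation then overnight dye step; 0% = bacteria only wells and 100% = bacteria with antibiotic; twin plates without the antibiotic show which effects depend on it; some results filed as inactive read as strong as hits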
Arbovirus anti repeat: second read-out of Arbovirus anti, no call of its own (marks repeat the call); inhibition, %; measured here: 10K subset replicate screen; many hits read low in the repeat;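 first of two repeat runs on a subset; 0% = infected and 100% = uninfected wells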
Starred values were filed as active, the others as inactive; ? = inconclusive; . = not tested or not shown. A portion of the library (hit frequency here may not be typical).

SMILES	Arbovirus anti	RecA splice inh	Mtb H37Rv	YopH inh	Mtb bLac sens	others
COc1ccc(NCC(=O)N/N=C2\CCCC(C)C2)cc1 (configuration not stated)	-4	-5.7	48%	24	.
O=C(OCC(=O)N1CCOCC1)c1cccc(S(=O)(=O)N2CCCc3ccccc32)c1	.	4.1	9%	.	-5
CCC(=O)Nc1cccc(NC(=O)CN2CCN(c3ccccc3OC)CC2)c1	1	1.7	6%	-34	-5
COc1cccc(CN(C)C(=O)CCN(c2ccccc2)S(=O)(=O)c2ccc(C)cc2)c1OC	.	-3.8	.	.	-12
Cc1ccc(Cn2ncc3c(N4CCN(CCc5ccccc5)CC4)ncnc32)cc1	.	0.2	1%	.	1
COc1ccc2c(c1)CCc1c(C(=O)Nc3c(C)nn(Cc4ccccc4)c3C)noc1-2	-4	5.3	-3%	-11	-1
COc1ccc(CN2CCNC(=O)C2CC(=O)NCCCn2nnc3ccccc32)cc1C (configuration not stated)	.	-5.3	.	.	0
CC(C)CC(=O)NC(Nc1ccc([N+](=O)[O-])cc1)C(Cl)(Cl)Cl (configuration not stated)	-15	1.3	0%	-19	4
COc1ccc(NC(=O)COc2coc(CN3c4ccccc4CC3C)cc2=O)cc1 (configuration not stated)	.	-1.7	.	.	-3
COC(=O)c1ccc2c(=O)n(Cc3ccc(C(=O)NCCCN4CCC(C)CC4)cc3)c(=S)[nH]c2c1	-10	0.8	-1%	.	91
Cc1ccc(S(=O)(=O)N2CCCCC2)cc1NC(=O)CN1CC=C(c2ccccc2)CC1	-16	9.9	14%	12	-3
COCC(C)NCC(=O)NC(C)CCc1ccccc1 (configuration not stated)	-10	2.3	-6%	-31	-1
O=S(=O)(Nc1ccc(-c2cn3ccsc3n2)cc1)c1ccc2c(c1)OCCO2	10	2.4	-7%	-26	-6
O=C(NCc1cccc(Cl)c1)c1cccnc1	-7	1.2	-1%	-30	-5
O=C(C1=C[C@H](c2coc3ccccc3c2=O)C[C@H](OCc2ccc(CO)cc2)O1)N1CCN(Cc2ccc3c(c2)OCO3)CC1	-11	3.1	1%	.	93
CCc1nnc(NC(=O)CCC(=O)N2CCN(S(=O)(=O)c3cc(Cl)ccc3OC)CC2)s1	.	-0.5	.	.	5
O=C(CCCN1CCOC(c2ccccc2)C1)c1ccc(F)cc1 (configuration not stated)	.	3.8	.	.	-6
Cc1cc(C)c(C(=O)OCC(=O)Nc2cccc(S(=O)(=O)N3CCCCC3)c2)c(C)c1	.	-1.5	.	.	6
CCCS(=O)(=O)N1CCN(Cc2c[nH]c3ccccc23)CC1	19	-0.2	2%	.	-8
COc1ccc2cc(CN(C(=O)Nc3ccccc3)C3CCCC3)c(=O)[nH]c2c1	-12	4.3	0%	-15	3
CCCCON1C(=O)c2cccc3cccc(c23)C1=O	.	2.0	.	.	-1
Cc1c(/C=N\NC(=O)C2COc3ccc(C(C)(C)C)cc3O2)c2ccccc2n1C (configuration not stated)	2	2.7	4%	-25	34
CCOC(=O)c1cc(CC)sc1NC(=O)c1ccc2c(c1)OCCO2	20	6.2	32%	-8	50
S=C(Nc1ccccn1)c1ccccn1	-25	1.1	4%	-9	-4	Arbovirus anti repeat=-12
OC(c1ccccc1)(c1ccc(F)cc1)C(c1ccccc1)N1CCOCC1 (configuration not stated)	-7	21	-4%	-76	10

Quoted from the listing for reference:
SMILES	Arbovirus anti	RecA splice inh	Mtb H37Rv	YopH inh	Mtb bLac sens	others
COc1ccc(NCC(=O)N/N=C2\CCCC(C)C2)cc1 (configuration not stated)	-4	-5.7	48%	24	.
O=C(OCC(=O)N1CCOCC1)c1cccc(S(=O)(=O)N2CCCc3ccccc32)c1	.	4.1	9%	.	-5

Later entries.
SMILES	Arbovirus anti	RecA splice inh	Mtb H37Rv	YopH inh	Mtb bLac sens	others
O=C1N(Cc2ccc(F)cc2Cl)c2ccccc2C12OCCCO2	5	9.7	7%	5	-2
CCCCCC1CC(CC(=O)Nc2ccc([N+](=O)[O-])cc2)C(=O)O1 (configuration not stated)	7	-0.6	0%	-24	53
Cc1ccc(/C(=N\S(=O)(=O)c2ccc(Br)cc2)Nc2ccccc2C)cc1	.	0.0	.	.	3
Cc1cc(C(=O)CN2C(=O)NC(C)(c3cccc(Br)c3)C2=O)c(C)n1Cc1ccco1 (configuration not stated)	-20	13	9%	-32	6
CCOc1[nH]c(/N=C/c2ccco2)c(C#N)c1C#N	10	.	.	-20	1
COc1ccc(C)cc1NC(=O)c1ccc(NS(=O)(=O)c2c(C)noc2C)cc1	.	1.5	.	.	-5
NC(=O)NC(CC(=O)OCC(=O)NC(=O)NCc1ccco1)c1ccc(Cl)cc1 (configuration not stated)	5	2.3	0%	-26	-3
CC12CCC(C(=O)N(c3ccccc3Cl)C1=O)C2(C)C (configuration not stated)	8	.	1%	-19	-1
Cc1cccc(C2NS(=O)(=O)N=C2N)c1 (configuration not stated)	6	-0.5	4%	-6	-10
Cc1cccc(NC(=O)Cn2c(/C=C/c3ccccc3)nc3ccccc32)c1	6	-1.8	10%	-23	2
Cc1ccc(SC(c2ccc(C)cc2)C(Cn2cncn2)C(=O)c2ccccc2)cc1 (configuration not stated)	-22	-1.5	5%	11	9
COC(=O)CSc1cc(C(F)(F)F)nc(-c2ccccn2)n1	6	-0.5	-1%	-10	-10
O=C(N/N=C/c1ccco1)c1[nH]ncc1Br	.	-0.8	.	.	4
O=S(Cc1ccc(Br)cc1)Cc1nnc(SCc2ccc(Cl)cc2)n1-c1ccccc1 (configuration not stated)	-32	13	9%	-28	90
CCc1cc(=O)oc2cc(OCC(=O)NCCCn3ccnc3)ccc12	.	-5.0	.	.	5
O=C(NNc1nc2cc3c(cc2s1)OCCO3)c1ccc(F)cc1	6	-4.9	-4%	.	25
FC(F)(F)c1ccccc1N1CC1c1ccncc1 (configuration not stated)	.	-1.6	.	.	-1
Cc1cc(OCCOCCN(C)CCO)cc(C)c1Cl	-32	-0.6	0%	-48	36
c1ccc(-n2nc3c(ccc4cnnc43)[nH]2)cc1	2	-2.0	10%	-41	-4
Cc1cc(C)nc(Nc2nc(C)c3cc4c(cc3n2)OCO4)n1	5	-0.4	0%	-1	15
CS(=O)(=O)N1CCC(C(=O)Nc2ccc(F)cc2)CC1	.	1.8	.	.	1
CCN(CCCNC(=O)Cn1cc2c(n1)CCCC2)c1cccc(C)c1	-9	-0.6	0%	-22	3	Arbovirus anti repeat=-10
O=C(O)C1=C(C(=O)N2CCN(C(=O)c3ccco3)CC2)CCCC1	3	.	.	-32	-5
CSCCC(N=Cc1c(O)n(-c2ccc(F)cc2)c(=O)[nH]c1=O)C(=O)OC(C)(C)C (configuration not stated)	1	-0.3	-4%	-22	-1
COc1ccc(NC(=O)c2ccco2)cc1NC(=O)c1cc2ccccc2o1	-7	-0.5	12%	-22	2

Pulled by compound from above (four):
SMILES	Arbovirus anti	RecA splice inh	Mtb H37Rv	YopH inh	Mtb bLac sens	others
Cc1cc(C(=O)CN2C(=O)NC(C)(c3cccc(Br)c3)C2=O)c(C)n1Cc1ccco1 (configuration not stated)	-20	13	9%	-32	6
O=C(N/N=C/c1ccco1)c1[nH]ncc1Br	.	-0.8	.	.	4
CCN(CCCNC(=O)Cn1cc2c(n1)CCCC2)c1cccc(C)c1	-9	-0.6	0%	-22	3	Arbovirus anti repeat=-10
CCOc1[nH]c(/N=C/c2ccco2)c(C#N)c1C#N	10	.	.	-20	1

Following part:
SMILES	Arbovirus anti	RecA splice inh	Mtb H37Rv	YopH inh	Mtb bLac sens	others
CCOc1ccccc1C1NC(=O)NC(C)=C1C(=O)OC1CCCC1C (configuration not stated)	7	2.7	7%	-7	-5
COc1ccc(NS(=O)(=O)c2cn(C)cn2)c(OC)c1	.	-1.0	.	.	-4
CCC(C)[C@H](NS(=O)(=O)c1ccc(C)cc1)C(=O)N1CCC(C(=O)N[C@@H](Cc2ccccc2)C(=O)O)CC1 (some centres not stated)	.	-8.8	.	.	1
COc1ccccc1NC(=O)Oc1ccc(NC(=O)c2ccco2)cc1	-7	0.3	-5%	-23	-4
O=c1c2ccccc2n2c(-c3cccc(F)c3)nnc2n1Cc1ccccc1	-4	-0.8	-1%	-17	-8
O=C(NCC1CCCCC1)c1ccc(Cl)nc1	.	-5.6	.	.	4
O/N=C/c1ccc2cccc(OCc3ccccc3)c2n1	.	-0.1	.	.	3
Cc1ccc(/C=N/NC(=O)c2ccc(-n3cccc3)cc2)o1	.	-1.7	.	.	5
Cc1ccc(-n2ncc3c(=O)n(CC#N)cnc32)cc1C	11	0.3	20%	0	.
COC(=O)c1ccccc1NC(=O)Cn1c(=O)oc2ccc(Cl)cc21	-2	-1.6	-5%	-21	8
Cc1cc(C)c(C#N)c(SCc2[nH]nc3c2C(c2ccc(F)cc2)C(C#N)=C(N)O3)n1 (configuration not stated)	2	32*	-7%	-16	-3
CCC(=O)c1ccc(N2CCN(C(=O)c3cccs3)CC2)c(F)c1	.	2.5	.	.	2
Cc1cccc(NC(=O)c2cccc(C(=O)Nc3cccc(C)c3C)n2)c1C	.	-1.2	.	.	7
CCOC(=O)c1cccc(-n2c(-c3ccc(OC)cc3)nc3nc4ccccc4nc32)c1	-20	-2.4	-3%	-8	.
CCOC(=O)c1nnn(-c2nonc2N)c1CN1CCCCCC1	8	0.0	-4%	-3	2
O=C(Nc1ccc(O)c(C(=O)O)c1)c1ccc2c(c1)C(=O)N(CC1CCCO1)C2=O (configuration not stated)	1	.	-10%	-5	-2
CCOC(=O)c1c(-n2cccc2)sc2c1CCCC2=O	-1	0.3	0%	-24	3
Cc1sc(NC(=O)CSc2nnc(COc3ccc(Cl)cc3)n2C)c(C#N)c1C	-5	0.4	-7%	0	5
Cn1cnnc1SCC(=O)NNC(=O)COc1ccc(Cl)cc1	3	0.1	6%	.	1
Cc1ccc(CNC(=O)Cn2nnc(C(=O)Nc3cc(C)ccc3C)c2N)cc1	.	-3.6	.	.	0
COc1cc(/C=N/NC(=O)Cc2csc(N3CCOCC3)n2)cc(OC)c1O	7	-5.9	-6%	.	-5
O=C(CCOc1ccccc1)Nc1ccc([N+](=O)[O-])cc1	8	0.9	-5%	.	-4
CCNc1nc(NC(C)C)nc(SCCOC(=O)c2ccccc2)n1	3	6.7	-5%	-17	-5
O=C(NN1C(=O)C2C3C=CC(C4CC34)C2C1=O)c1cccc(Cl)c1 (configuration not stated)	2	-0.7	-1%	-18	3
CC(C)CCNc1nc(N)c([N+](=O)[O-])c(NCCO)n1	.	1.2	9%	.	-4

Continuation:
SMILES	Arbovirus anti	RecA splice inh	Mtb H37Rv	YopH inh	Mtb bLac sens	others
O=C(Nn1c(C2CCCCC2)nc2ccccc2c1=O)c1ccc([N+](=O)[O-])cc1Cl	13	-4.3	26%	-22	-2
O=C(Nc1ncc(Cc2ccccc2Cl)s1)c1ccc([N+](=O)[O-])cc1	1	1.6	-9%	-29	3
O=C1NCC2=C1C(c1ccccc1)Nc1ccccc1N2 (configuration not stated)	7	?	-6%	-31	-2
Cc1csc(SCC(=O)NCCc2ccc(Cl)cc2)n1	-4	0.1	-9%	-22	3
COCCn1nnnc1C(c1ccc(OC)cc1)N1CCC(C)CC1 (configuration not stated)	0	-0.9	5%	-3	-8
COc1ccc(N2CCN(C(=O)COC(=O)c3cnccn3)CC2)cc1	.	-2.0	.	.	-13
Cc1cc(C)c2c(N)c(C(=O)NC3CCCC3)sc2n1	-5	.	-1%	.	-4
CN(CC(=O)NCCc1ccccn1)S(=O)(=O)c1ccc(Cl)cc1	0	-0.5	3%	.	-1
Cc1ccc(S(=O)(=O)Nc2c(C)nn(C)c2C)c(C)c1	.	-2.0	.	.	4
O=C(NCCCNC(=O)c1ccccn1)c1cccc(F)c1	.	0.7	.	.	3
CC(C)Oc1ccc(C(CC(=O)N(C)CCC#N)c2ccc(F)cc2)cc1 (configuration not stated)	-1	-0.3	-1%	-24	-1
CCCn1c(N)c(N(CCOC)C(=O)CSCC(=O)Nc2ccc(OC)cc2)c(=O)[nH]c1=O	.	0.9	.	.	-2
CCOC(=O)c1ccc(NC(=O)N2CCc3ccccc32)cc1	-17	5.1	-6%	-7	4
CCS(=O)(=O)c1ncc(Cl)c(C(=O)Nc2ccc(S(=O)(=O)N3CCC(C)CC3)cc2)n1	.	96*	.	.	-6
CCn1nnnc1SCC(=O)NCc1cccs1	6	1.2	-4%	-27	-11
O=C(Nc1ccc(C(=O)O)cc1)/C(=C\c1ccc([N+](=O)[O-])cc1)NC(=O)c1ccc(Br)cc1	-1	1.9	-3%	.	-8
CC(=O)c1ccc(OCc2cc(C(=O)NC(C)CCn3cccn3)no2)cc1 (configuration not stated)	.	3.0	.	.	5
CCn1c(SCc2ccccc2)nnc1C1CCN(S(=O)(=O)c2ccc(OC)cc2)CC1	24	-5.4	-7%	3	0

Compound activity deposited in PubChem by several laboratories.
